AID504770 – E. coli YBA685 growth inhibition, screen for V. cholerae RctB inhibitors; 130,000 compounds, 0.27% hits; E. coli YBA685 rctB-dependent plasmid, OD600 growth, 3 h; hits give low values; z-score (no concentration beside the values);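 active = z-score under -2 on both plates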;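 note: wells of about 30 µL received 100 nL stock; score is relative to mean and SD of the test wells; the first replicate is given; strong numbers were not always called active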
Ba CapD inh – inhibitors of Bacillus anthracis CapD enzyme; AID 492967; purified CapD enzyme, fluorescence intensity read-out; hits give low values; some hits fall short of the stated cut; 140,000 compounds, 0.23% hits; z-score (no concentration beside the values);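 active = z-score under -4 in either of two replicates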;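 note: stock transfer was 100 nL into about 40 µL; score is relative to mean and spread of the plate; one replicate is shown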
Numbers without * were called inactive; nt = no result given.

Order of results – AID504770 | Ba CapD inh
> O=C(c1cccs1)N1CCCN(Cc2cccc3ccccc23)CC1
 : 0.3 | -0.315
> Cc1ccc(NS(C)(=O)=O)cc1F
 : 0.25 | 0.125
> CCCCc1c(O)nc2sc3ccccc3n2c1=O
 : -0.15 | 0.025
> CC(=O)C1=C(C)Nc2ncnn2C1c1ccccn1 (centres undefined)
 : nt | -1.57
> CN(C)CCCNC(=O)/C(=C/c1cn(-c2ccccc2)nc1-c1ccc(Br)cc1)NC(=O)c1ccccc1
 : nt | -0.54
> CC(C)C1=NNC(=O)C1(C)C
 : -0.7 | 0.05
> COc1ccc(-c2nc(-c3ccccn3)nc(N3CCOCC3)c2C#N)cc1
 : nt | 0.13
> O=C1ON=C(c2ccccc2)/C1=C/c1c(Cl)cccc1Cl
 : nt | 0.5
> CCc1ccc(CNC(=O)c2coc(=O)c3ccccc23)cc1
 : nt | 0.195
> COC(=O)c1ccccc1S(=O)(=O)Nc1ccc2nc(C)sc2c1
 : -2.45 | nt
> CS(=O)(=O)c1ccc(C(=O)Nc2cccc(Cl)c2)cc1
 : -1.15 | 1.69
> CCCNC(=O)c1c(C)c(C(=O)OCC)n(C)c1C
 : -0.5 | 0.085
> COCCN1C(=O)c2ccccc2C(C(=O)NC2CC2)C1c1cccs1 (centres undefined)
 : 0 | -0.275
> O=C(NCCSc1ccccc1)C1CCCN1S(=O)(=O)c1ccc2ccccc2c1 (centres undefined)
 : 0.1 | -0.055
> CN1c2ccccc2C(C)(C)C12C=Cc1cc(O)ccc1O2 (centres undefined)
 : -0.35 | -0.405

Individual results from the list.
In Ba CapD inh, CS(=O)(=O)c1ccc(C(=O)Nc2cccc(Cl)c2)cc1 reads 1.69
In AID504770, CCCNC(=O)c1c(C)c(C(=O)OCC)n(C)c1C reads -0.5
In Ba CapD inh, COc1ccc(-c2nc(-c3ccccn3)nc(N3CCOCC3)c2C#N)cc1 reads 0.13
In Ba CapD inh, CN1c2ccccc2C(C)(C)C12C=Cc1cc(O)ccc1O2 (centres undefined) reads -0.405
In AID504770, CC(C)C1=NNC(=O)C1(C)C reads -0.7
In AID504770, O=C(c1cccs1)N1CCCN(Cc2cccc3ccccc23)CC1 reads 0.3

Going on with the list.
Order of results – AID504770 | Ba CapD inh
> CC(C(=O)NCCc1ccccc1)n1c2ccccc2c2cn[nH]c(=O)c21 (centres undefined)
 : -0.95 | 9.43
> Cc1sc2nc(Cn3nnc(-c4cccc(C(F)(F)F)c4)n3)[nH]c(=O)c2c1C
 : -1.4 | nt
> O=C(O)CCN1C(=O)c2ccncc2C1=O
 : -1.3 | 0.035
> Oc1ccccc1C1=NN2C(C1)c1ccccc1OC21CCCC1 (centres undefined)
 : -1.15 | -0.19
> CC(C)CNC(=O)c1cccc(Cn2cc(Cl)cn2)c1
 : 1.9 | 0.015
> Cc1ccc(-c2nc(NC(=O)Nc3ccc(Cl)cc3)sc2C)cc1
 : nt | 0.015
> O=C(NC1CCCC1)c1cnc(N2CCCC2)nc1
 : -1.55 | 4.96
> COc1ccc(-n2cnc3cc(C(=O)N4CCCCC4)ccc32)cc1
 : -0.3 | 0.12
> O=C(Nc1nn[nH]n1)C1c2ccccc2Oc2ccccc21
 : 0.5 | 0.1
> N#C/C(=C(/O)c1ccc(C(=O)c2ccccc2)cc1)c1nc2ccccc2s1
 : 1.75 | -0.585
> O=[N+]([O-])c1ccc(NCCO)nc1
 : nt | -2.09
> COc1cc(/C=c2\sc3nc4ccccc4n3c2=O)ccc1OCc1ccc(Br)cc1
 : nt | 0.225
> CN1/C(=C\C(=O)c2ccccc2)C(C)(C)c2ccccc21
 : 1.35 | -0.09
> COC(=O)C(C)(C)NC(=O)Nc1ccc(Cl)cc1Cl
 : 2.2 | 0.035
> O=C(NC1CCCc2ccccc21)C1CCCN(c2nnc(-n3cccc3)s2)C1 (centres undefined)
 : -1.05 | 0.275
> O=C(COC(=O)CCC1CCCC1)Nc1ccccc1Br
 : 0.75 | 0.475
> Cc1ccc(CSc2nc3c(c(Oc4ccc(C)cc4)n2)CCCC3)cc1
 : nt | 0.605
> CCOCCOC(=O)C1=C(C)NC2=C(C(=O)CC(c3ccc(Cl)cc3)C2)C1c1cc(Br)c(O)c(OC)c1 (centres undefined)
 : nt | 5.11
> CCN(CC)C(=O)COc1cc(C)ccc1C(C)C
 : 0.1 | 0.3
> COCC(O)CSc1nc(C)cc(C)n1 (centres undefined)
 : -0.2 | 0.35
> O=C(Nc1ccc(-c2nc3ccccc3s2)cc1)c1ccc(S(=O)(=O)N2CCCc3ccccc32)cc1
 : nt | 0.645
> CCN(CC)S(=O)(=O)N1CCC(C(=O)NCc2ccco2)CC1
 : -0.55 | 0.175
> CCN(CC)S(=O)(=O)c1ccc(NC2c3ccccc3C(=O)N2c2ccccn2)cc1 (centres undefined)
 : 0.95 | -0.195
> COc1cc2nn3c(C)cc(=O)[nH]c3c2cc1OC
 : -0.2 | 65.1
> CC(C)[C@H](NC(=O)c1ccc(C(C)(C)C)cc1)C(=O)NCc1ccco1
 : 0.05 | nt
> COC(=O)c1cc(CSc2nnc3c(Cl)cc(Cl)cn23)oc1C
 : -0.5 | nt
> Cc1cc(C)n2nc(SCC(=O)NCc3ccc(Cl)cc3)nc2n1
 : 0 | 0.115
> c1cncc(C2CCCCN2Cc2ccc3c(c2)OCO3)c1 (centres undefined)
 : -0.05 | nt
> COc1ccc(Oc2ccc(NC(=O)Nc3ccc(SC(F)(F)F)cc3)cn2)cc1
 : nt | 0.165
> CNC(=O)Oc1c(Br)cc2sc(=O)oc2c1Br
 : 0.05 | nt
> COC(=O)C1=C(C)N(CCc2c[nH]c3ccccc23)C(=O)/C1=C\N(C)C
 : nt | -0.8
> COC(=O)c1nn(-c2ccccc2)c(Cl)c1/C=N/OCc1ccc(F)cc1
 : nt | -0.15
> CCc1c(C)sc(NC(=O)/C=C/c2cccs2)c1C(=O)OC
 : -1 | -0.405
> COCCOC(=O)c1c(C)oc2ccc(NS(=O)(=O)c3cc([N+](=O)[O-])ccc3Cl)cc12
 : nt | 0.345
> COCC(C)n1c(C)cc(C(=O)COC(=O)C2COc3ccccc3O2)c1C (centres undefined)
 : -0.75 | nt
> N#Cc1ccccc1NC(=S)Nc1ccccc1
 : 0.8 | nt
> N#CC(C#N)=C1c2cc(S(=O)(=O)N3CCCCC3)ccc2-c2ccc(S(=O)(=O)N3CCCCC3)cc21
 : -0.6 | nt
> Cc1onc(-c2ccccc2)c1C(=O)Nc1ccnn1C1CCCCC1
 : -0.2 | nt
> Cc1cc(C)n(C(=O)CSc2ccc(C(C)(C)C)cc2)n1
 : -0.1 | -0.05
> CN1CCC(OC(=O)COc2ccc(F)cc2)CC1
 : -0.3 | nt
> C/C(=N\NC(=O)c1ccc(CN2CCOCC2)cc1)c1ccc2c(c1)OCCO2
 : 1.5 | 0.07
> O=C(Nc1ccc(OCc2ccccc2)cc1)NC1CCCc2ccccc21 (centres undefined)
 : 1.4 | 0.945
> Cn1c(=S)[nH]c2cc(S(N)(=O)=O)ccc21
 : 0.25 | nt
> NC(=O)CSc1nnc(CNc2ccc(Cl)cc2)n1Cc1ccccc1
 : -0.25 | nt
> CCn1c(C(=O)N2CCCC(C(=O)NC(C)c3ccc4c(c3)OCCO4)C2)cc2sccc21 (centres undefined)
 : 0.9 | -0.24
> O=C(O)c1cc(N=Cc2ccc(N3CCCC3)c(F)c2)ccc1O
 : -0.75 | -0.55
> COc1ccc(Oc2coc3c(CN4CCCCCC4)c(O)ccc3c2=O)cc1 (tested in a mixture with another compound)
 : nt | 0.265
> COC(=O)CSc1nc(-c2ccccc2)cc(-c2cccs2)c1C#N
 : nt | 1.04
> CCCN(CCC)c1ncnc2c1cnn2-c1ccccc1
 : 1.25 | 0.575
> CCOC(=O)C1CCN(/C=C2\C(=O)NC(=S)N(CC)C2=O)CC1
 : -0.05 | -0.005
> CCOc1ccc2nc(N3CCC(C(=O)NCCc4ccc(OC)cc4OC)CC3)sc2c1
 : 0.8 | 0.865
> CN(Cc1ccccc1)C(=O)c1cc2c(Cl)nc3ccccc3c2s1
 : 1.25 | 0.075
> O=C(NC1CCCCC1)N(Cc1ccccc1)Cc1cc2cc3c(cc2[nH]c1=O)OCCO3
 : 0.6 | nt
> CN(C)C1=NC(C(F)(F)F)(C(F)(F)F)N=C(c2ccc(F)cc2)O1
 : nt | -0.145
> CCOc1ccc(C2Nc3cccc4cccc(c34)N2)cc1
 : nt | 40.7
> CCOc1cc(C(=O)OCC(=O)c2c(C)[nH]c3ccccc23)ccc1OCC(=O)N1CCOCC1
 : -3.75 | nt
> COc1ccc(C2=CC(=C(C#N)C#N)c3cc4c(cc3O2)OCO4)cc1
 : 1.05 | nt
> O=C(O)CCNC(=S)Nc1ccc(F)c(Cl)c1
 : nt | -0.025
> CC(=O)N1CCN(C(=O)CNc2cc(C(F)(F)F)ccc2OCC(F)(F)F)CC1
 : -0.5 | 1.02
> N#Cc1ccc(Cl)cc1NC(=O)CSC(=O)c1ccccc1
 : 1 | 0.54

Next structures.
Order of results – AID504770 | Ba CapD inh
> Cc1occc1-c1nnc(SCC(=O)c2ccc3c(c2)CCN3S(C)(=O)=O)n1C
 : -0.9 | nt
> CCOC(=O)c1ccc(-n2cnc3c2C(=O)c2ccccc2C3=O)cc1
 : -0.5 | nt
> Clc1ccccc1-c1nc(N2CCCC2)c2ccccc2n1
 : -0.7 | -0.515
> COc1ccc(CN2C(=O)CC(=O)NC2=S)cc1
 : -0.55 | nt
> CC12CNCC(C)(CN(Cc3ccccc3)C1)C2
 : -0.2 | nt
> O=C(CSc1nc2ccccc2n1CCc1ccccc1)NC1CCS(=O)(=O)C1 (centres undefined)
 : 1.15 | nt
> CCCCN(C)c1nc(-c2ccc(OC)cc2)nc2ccccc12
 : -0.6 | 11.8
> Cc1ccc(OCc2nc(C#N)c(N3CC(C)OC(C)C3)o2)cc1 (centres undefined)
 : -0.2 | 0.13
> O=C1OC2CC3CCC2C1C3 (centres undefined)
 : 0.15 | 0.455
> COc1ccc(C2Sc3nncn3N2Cc2ccc(C#N)cc2)cc1 (centres undefined)
 : -0.05 | 0.075
> O=C(CN1C(=O)CCc2ccccc21)NCc1ccccc1
 : -0.7 | -0.03
> CN(C(=O)CSCc1ccc(Cl)cc1)c1ccccc1
 : -0.8 | 0.01
> CCOC(=O)c1ccc(NC(=S)NNC(C)(C)C)cc1
 : nt | 0.425
> C=C(C)C1CC=C(/C=N/NC(=O)c2cc(Cl)ccc2OC)CC1 (centres undefined)
 : nt | 0.23
> COc1ccc(-c2nnc(Sc3cc(C(C)(C)C)c(O)c(C(C)(C)C)c3)c3ccccc23)cc1
 : nt | 0.185
> CC1CCCCN1C(=O)Cn1c(=O)n(CC2CCC(C(=O)NC3CCCC3)CC2)c(=O)c2ccccc21 (centres undefined)
 : -0.45 | 2
> COc1ccccc1Oc1c(C)oc2cc(OC(=O)N(C)C)ccc2c1=O
 : -0.4 | 0.01
> CCCNC(=O)Cn1ncc2c3ccccc3n(C)c2c1=O
 : -0.5 | 62.4
> COc1ccc(C2NC(=O)NC(C)=C2C(=O)Nc2ccccc2Cl)cc1OC (centres undefined)
 : nt | -0.85
> O=C(CN1C(=O)c2cccc3cccc1c23)Nc1ccc(S(=O)(=O)N2CCCCCC2)cc1
 : 0.2 | 0.665
> Cc1ccccc1NC(=O)CSC1=C(C#N)C(c2ccccc2Cl)C2=C(CCCC2=O)N1 (centres undefined)
 : nt | 8.45
> COc1ccc(NC(=O)CN2C(=O)/C(=C3\SC(=S)N(C4CCS(=O)(=O)C4)C3=O)c3ccccc32)cc1 (centres undefined)
 : nt | -0.075
> C/C(=N\NC(=O)Cc1cccs1)c1ccc(S(=O)(=O)N2CCCC2)cc1
 : -0.45 | nt
> NC(=O)CN1C(=O)Cc2ccccc2C1=O
 : 0.45 | -0.01
> O=C(CSc1nc2ccsc2c(=O)n1Cc1ccccn1)Nc1nccs1
 : -0.15 | 0.415
> O=c1c(=Nc2ccc(O)cc2)c(=O)c2ccccc12
 : 0.1 | 0.04
> Cc1ccc(S(=O)(=O)N2N=NC3C4CC(C5CC=CC54)C32)cc1 (centres undefined)
 : -1.25 | -0.095
> O=C(c1ccc(Br)cc1)c1ccc([N+](=O)[O-])cc1
 : nt | -0.555
> CCOC(=O)C1CCN(c2ncnc3c2c(-c2ccccc2)cn3-c2ccc(OC)cc2)CC1
 : nt | 0.38
> COc1ccc(NC(=O)C2CCCN2c2cccc(C(F)(F)F)c2)cc1OC (centres undefined)
 : 0.15 | 2.58

Random excerpt: two compounds from above.
Order of results – AID504770 | Ba CapD inh
> COc1ccc(NC(=O)CN2C(=O)/C(=C3\SC(=S)N(C4CCS(=O)(=O)C4)C3=O)c3ccccc32)cc1 (centres undefined)
 : nt | -0.075
> O=C(c1ccc(Br)cc1)c1ccc([N+](=O)[O-])cc1
 : nt | -0.555

Next section
Order of results – AID504770 | Ba CapD inh
> CCc1c(C)sc(NC(=O)C2CC3CCC2C3)c1C(=O)OC (centres undefined)
 : 0.85 | 18.6
> Cc1ccc(OCC(=O)O)c(-c2ccno2)c1
 : 1.05 | 3.27
> CC(C)(C)c1ccc2ccccc2[o+]1
 : -1.25 | -0.14
> O=C(CCc1ccc(O)cc1)N/N=C/c1coc2ccccc2c1=O
 : -0.55 | -1.3
> C=CCn1c2ccc(C)cc2c2nc3ccccc3nc21
 : 0.35 | 0.31
> CSc1sc(C(=O)N2CCOCC2)cc1-c1nc(-c2ccc(Cl)cc2)cs1
 : 0.8 | -0.43
> CCC1(c2csc(Nc3ccccc3C)n2)CCC(=O)O1 (centres undefined)
 : 0.1 | nt
> O=C(NCc1ccccc1C(F)(F)F)c1ccc2ccccc2c1
 : 1.65 | 71
> CCN(Cc1ccccc1)C(=O)Cn1c(=O)n(-c2ccc(C)cc2)c(=O)c2ccccc21
 : 1.15 | 0.17
> N#CCSc1sc2c(O)cc(=O)[nH]c2c1C#N
 : -0.85 | nt
> CN(C)S(=O)(=O)c1ccc2ncn(O)c2c1
 : 0.3 | nt
> CN(/N=C1\C(=O)Nc2ccc(F)cc21)c1ncc(C(F)(F)F)cc1Cl
 : nt | -0.18
> O=C(CC(=O)NCC1CCCO1)NCC1CCCO1 (centres undefined)
 : -0.7 | -0.285
> O=S(=O)(Cc1ccc2nonc2c1)c1ccc(C(F)(F)F)cn1
 : -0.35 | 0.735

Screening data (PubChem)
